RanGTP-Impb inh – inhibitors of RanGTP-importin-beta interaction, primary screen, biochemical, FRET, CFP-Ran, YFP-importin-beta, homogeneous | Ran GTPase (GTP-bound) - importin-beta complex | cell-free CFP-Ran/YFP-importin-beta FRET ratio | inhibition, % (concentration not given with the values) | actives 1.1% (n = 300,000) | AID 2216, 2009;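 active = most replicates above 15%; inconclusive = exactly half above 15%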;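 also: 0% = DMSO wells and 100% = Ran loaded with GDP instead of GTP; wells of about 40 µL received 100 nL stock; the first replicate is given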
AF4-AF9 inh – inhibitors of AF4 peptide binding to AF9, primary screen, biochemical, AlphaScreen, biotin-AF4 peptide, FLAG-AF9, single point; AID 651704, 2012; inhibition, % at 10 µM; Protein AF-9 (Homo sapiens), P42568; actives 0.47% (n = 350,000);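 active = every replicate reaching a set inhibition limit, whatever the replicate mean, cut at about 25% in these data; inconclusive = mean inhibition reaches that limit but some replicates miss it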;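 also: 0% = plate neutral control median and 100% = total signal loss; the record names both 10 and 1 µM as test concentration; the first replicate is given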
Target sequence (P42568 whole entry, looked up): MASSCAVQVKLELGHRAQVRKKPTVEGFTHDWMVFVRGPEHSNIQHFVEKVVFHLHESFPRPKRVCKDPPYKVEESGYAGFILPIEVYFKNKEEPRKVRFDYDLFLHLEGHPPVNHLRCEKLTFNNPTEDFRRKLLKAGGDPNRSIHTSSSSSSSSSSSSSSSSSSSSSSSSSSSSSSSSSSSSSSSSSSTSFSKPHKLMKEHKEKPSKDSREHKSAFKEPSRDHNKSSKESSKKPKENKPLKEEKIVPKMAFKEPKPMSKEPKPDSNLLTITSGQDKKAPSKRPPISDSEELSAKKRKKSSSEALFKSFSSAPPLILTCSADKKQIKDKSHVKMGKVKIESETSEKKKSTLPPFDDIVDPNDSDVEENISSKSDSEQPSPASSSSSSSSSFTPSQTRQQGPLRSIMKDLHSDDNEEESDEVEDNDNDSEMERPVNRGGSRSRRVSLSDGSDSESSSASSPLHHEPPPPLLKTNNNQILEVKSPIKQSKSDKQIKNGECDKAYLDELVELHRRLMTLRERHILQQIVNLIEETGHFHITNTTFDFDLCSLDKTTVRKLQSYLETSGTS
Calb FLC – C. albicans growth inhibition with fluconazole, primary screen, CaCi-2 strain, Alamar Blue fluorescence. C. albicans CaCi-2 (fluconazole-resistant clinical isolate) + fluconazole, 48 h. growth inhibition, % (test concentration not listed). actives 0.57% (n = 300,000). AID 1979, 2009;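 active = most replicates above 75%; inconclusive = exactly half above 75%; inactive = most below 75%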;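 also: all wells also contain fluconazole at 8 µg/ml as a sub-toxic cotreatment; 0% = median of DMSO wells and 100% = median of geldanamycin control wells; wells of about 8 µL received 7.5 nL stock; the first replicate is given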
Beta apoptosis – inhibitors of cytokine-induced beta cell apoptosis, primary screen, luminescence; INS-1E cytokine-induced death, ATP luminescence, 48 h; percent of positive-control rescue, neutral wells zero; protection from apoptosis, % (test concentration not listed); actives 0.8% (n = 300,000); AID 435005, 2010;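 active = all replicates at 75% or more, or half of them and the mean; inconclusive = half reach 75% but not the mean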;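 also: 0% = cytokine-treated negative control wells and 100% = positive control rescue; higher means more ATP so stronger rescue from cytokine killing; wells of about 40 µL received 100 nL stock; the first replicate is given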
T cruzi inh – inhibitors of intracellular T. cruzi growth, primary screen, luminescence, NIH3T3 host cells. T. cruzi beta-gal in NIH3T3, 90 h. inhibition, % (test concentration not listed). actives 1.4% (n = 300,000);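 active = mean inhibition across valid replicates above about 55%, limit read from the data; inconclusive = mean below that limit but half or more replicates reach it; inactive = mean below it, under half of replicates reach it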;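 also: signal also drops with host cell toxicity which is not excluded here; 0% = plate median of DMSO wells and 100% = zero luminescence signal; higher percent means less beta-gal luminescence so fewer parasites; stock transfer was 50 nL into about 50 µL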
ALR H2O2 inh – inhibitors of human ALR sulfhydryl oxidase, primary screen, biochemical, H2O2 detection, HRP-luminol luminescence, single point. inhibition, % (no concentration beside the values). actives 3.8% (n = 290,000). purified ALR, DTT oxidation. FAD-linked sulfhydryl oxidase ALR (Homo sapiens), P55789;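 active = mean and each replicate at 75% or more; inconclusive = only one of the two met; inactive = neither met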;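 also: stock transfer was 7.5 nL into about 7.5 µL; 0% = neutral wells and 100% = wells with inactivated enzyme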
Target sequence (P55789 whole entry, looked up): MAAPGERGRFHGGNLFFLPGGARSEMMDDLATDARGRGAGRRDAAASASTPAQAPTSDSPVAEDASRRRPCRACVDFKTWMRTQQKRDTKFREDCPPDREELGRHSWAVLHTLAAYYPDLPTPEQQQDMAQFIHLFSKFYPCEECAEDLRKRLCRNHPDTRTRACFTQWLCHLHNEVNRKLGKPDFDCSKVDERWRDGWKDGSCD
Ecoli rRNA inh – reduced GFP signal of wild-type E. coli, primary screen, bacterial rRNA inhibitor project, GFP/RFP fluorescence, OD600, single point; E. coli WT GFP vs humanized-ribosome RFP mutants, 24 h; active compounds read low; DMSO median 0, no signal -100; GFP signal change (wild-type ribosome), % (test concentration not listed); AID 720706, 2013; actives 1.6% (n = 350,000);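 active = significant combined selectivity score with lowered wild-type GFP, culture density cut under 30%, mutant RFP and density less affected; inactive = any of these conditions unmet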; also: one replicate is shown; some compounds called inactive have numbers as strong as hits
FGF22 binding – binders of human FGF22 protein, primary screen, FGF22 synaptogenesis inhibitor project, biophysical, thermal shift, single point; Fibroblast growth factor 22 (Homo sapiens), Q9HCT0; recombinant FGF22 thermal shift, SYPRO orange fluorescence; percent of sucrose octasulfate shift, DMSO zero; calls only at 9.99 µM; actives 1.5% (n = 340,000); AID 651658, 2012;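 active = melting point raised past a set limit in the mean and every replicate; inconclusive = no clear call; three in four hits are not shown here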
Target sequence (Q9HCT0 whole entry, looked up): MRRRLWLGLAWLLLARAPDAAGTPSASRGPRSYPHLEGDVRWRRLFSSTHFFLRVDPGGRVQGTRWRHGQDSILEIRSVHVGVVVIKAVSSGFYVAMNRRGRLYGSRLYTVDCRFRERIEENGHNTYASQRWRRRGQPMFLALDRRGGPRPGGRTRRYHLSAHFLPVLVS
Ecoli rRNA inh OD600 – recorded beside Ecoli rRNA inh, whose call it bears; OD600 change, %; measured here: OD600 growth;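 optical density of the mix in the first replicate; 0 = DMSO median and -100 = no signal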
Ecoli rRNA inh RFP – recorded beside Ecoli rRNA inh, whose call it bears; RFP signal change, %; measured here: RFP humanized mutant strains;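 first replicate; 0 = DMSO median and -100 = no signal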
* = called active by the depositor; i = inactive; u = inconclusive; x = not tested or not shown. Not all compounds are listed. The share of hits here may be higher or lower than overall.

SMILES | RanGTP-Impb inh | AF4-AF9 inh | Calb FLC | Beta apoptosis | T cruzi inh | ALR H2O2 inh | Ecoli rRNA inh | Ecoli rRNA inh OD600 | Ecoli rRNA inh RFP | FGF22 binding
COc1ccc(NS(=O)(=O)c2ccc3oc(SCc4ccc(F)cc4)nc3c2)cc1 | 2.6 | 2.3 | 35 | 25 | 3 | -42 | -8 | -36 | 31 | i
CCOc1ccc(Cl)cc1CN1CCOCC1 | -0.5 | x | -12 | 0 | 1 | -21 | x | x | x | x
O=C(c1ccc(NC(=S)NCc2ccc(Cl)cc2)cc1)N1CCCCC1 | 0.6 | -1.6 | -6 | 1 | 4 | x | 8 | 13 | -4.6 | i
O=C(Nc1nc2ccccc2n1Cc1ccccc1)c1ccco1 | 3.5 | x | x | 14 | 21 | 2 | x | x | x | x
O=C(NCCCN1CCOCC1)c1ccc(N2CCCC2)c([N+](=O)[O-])c1 | 1.1 | 0.7 | -3 | 0 | 8 | -3 | 3 | 8 | -0.4 | i
CN(C)C(=O)C(OC(=O)c1ccc2c(c1)CCCC2)c1ccccc1 (centres undefined) | 0.9 | 1.4 | 8 | 4 | 4 | -2 | -7 | -5 | 3.1 | i
CCOCCCNC(=O)c1ccc2c(c1)ncn2-c1ccc(C)cc1C | 1.7 | -2.5 | 5 | -6 | 0 | 0 | -11 | -4 | -1.6 | i
CCOC(=O)c1c(NC(=O)CC2SC(=NC)N(C)C2=O)sc(C)c1C (centres undefined) | 0.7 | x | 19 | 3 | -1 | -1 | x | x | x | x
Cc1ccc(/C=C/C(=O)OCC(=O)N2CC(=O)Nc3ccccc32)o1 | 1.2 | -2.4 | -7 | -3 | -6 | 2 | 0 | -9 | -1.5 | i
CC(C)CC(CO)N1CCN(C(=O)c2cccc(C(F)(F)F)c2)CCC1=O (centres undefined) | -2.8 | -7.7 | -7 | -7 | 11 | -15 | 12 | 5 | -1.8 | i
CCc1ccc(OCc2ccc(C(=O)OC)o2)cc1 | -1.5 | -11 | 2 | 0 | -15 | -6 | -2 | 0 | -0.3 | i
COc1ccc(NC(=S)N(CCN(C)C)Cc2cccs2)cc1 | 2.9 | 1.8 | -2 | 5 | 3 | x | -3 | -5 | -0.9 | i
COc1ccc(C(=O)n2cc(C(=O)c3cc(C)ccc3O)cn2)cc1 | 1.4 | x | -10 | -8 | -8 | 98* | x | x | x | x
COc1ccc(N2CCN(C(=O)CSc3nnc(COc4cccc5cccnc45)o3)CC2)cc1 | u | 7.2 | 5 | 1 | -13 | 69 | -10 | -11 | 1.4 | i
Cc1cc(=O)[nH]c2nnnn12 | -1.5 | 6.4 | 5 | 0 | -8 | -1 | 13 | 10 | -2.3 | i
Cc1csc(NC(=O)c2ccc3ccccc3n2)n1 | 0.3 | 3.9 | 0 | 6 | -7 | x | 5 | 6 | 2.8 | i
O=C(Nc1ccccc1)c1ccc(Nc2c([N+](=O)[O-])cc([N+](=O)[O-])c3ccccc23)cc1 | -4.2 | x | 12 | 22 | 66* | -13 | x | x | x | x
CC(C)(C)c1cc(=O)n2[nH]c(N)nc2n1 | -1.1 | -1.2 | -2 | -5 | -12 | 1 | 10 | 3 | -3.8 | i
CC1CN(S(=O)(=O)c2cc(C(=O)NCCC3=CCCCC3)ccc2Cl)CC(C)O1 (centres undefined) | u | -2.1 | -21 | 16 | 9 | -9 | 3 | 5 | -0.7 | i
CCCCSc1nc(C)nc2c1c(=O)n(C)c(=O)n2C | 3.8 | -25 | -4 | 6 | 11 | -7 | 2 | 2 | -3.7 | i
C/C(=C\C(=O)c1ccc(Br)cc1)NCc1ccc2c(c1)OCO2 | 2.7 | x | -39 | -3 | 16 | 0 | x | x | x | x
CCc1ccc(Nc2ccc3nonc3c2[N+](=O)[O-])cc1 | -3.4 | 1.4 | -2 | 8 | -3 | -1 | 9 | 10 | -1.4 | i
CCn1c(CNC(=O)c2ccc(OC)c(OC)c2)nnc1SCC(=O)Nc1ccc(OC)cc1 | 8.0 | x | -1 | 3 | 12 | -3 | x | x | x | x
C=CCN=C1CC(C)(C)C(C(=O)OC)C(O)=C1C(=O)CCC (centres undefined) | -3.7 | -1.6 | -3 | 1 | 2 | -4 | 7 | 7 | 0.4 | x

Compound profiles, from the list above. Screens in order: RanGTP-Impb inh	AF4-AF9 inh	Calb FLC	Beta apoptosis	T cruzi inh	ALR H2O2 inh	Ecoli rRNA inh	Ecoli rRNA inh OD600	Ecoli rRNA inh RFP	FGF22 binding
Listed for COc1ccc(C(=O)n2cc(C(=O)c3cc(C)ccc3O)cn2)cc1 : 1.4	x	-10	-8	-8	98*	x	x	x	x
Listed for O=C(Nc1ccccc1)c1ccc(Nc2c([N+](=O)[O-])cc([N+](=O)[O-])c3ccccc23)cc1 : -4.2	x	12	22	66*	-13	x	x	x	x
Listed for C/C(=C\C(=O)c1ccc(Br)cc1)NCc1ccc2c(c1)OCO2 : 2.7	x	-39	-3	16	0	x	x	x	x

Following part
SMILES | RanGTP-Impb inh | AF4-AF9 inh | Calb FLC | Beta apoptosis | T cruzi inh | ALR H2O2 inh | Ecoli rRNA inh | Ecoli rRNA inh OD600 | Ecoli rRNA inh RFP | FGF22 binding
CS/C(=C\[N+](=O)[O-])Nc1ccc(Cl)cc1 | 2.8 | x | 102* | 0 | -8 | 5 | x | x | x | x
CN(C)CCCCOc1ccc(F)cc1 | -0.8 | -1.0 | -1 | x | u | -11 | 5 | 11 | -0.6 | i
COc1ccc(-c2csc3nc(C)nc(N4CCCCC4)c23)cc1OC | 3.7 | 1.2 | 10 | 0 | 12 | -3 | -32 | -35 | -15 | i
CCOC(=O)C(C)Sc1ncc(-c2ccc(Cl)cc2)cn1 (centres undefined) | 0.4 | x | 14 | 0 | 4 | -10 | x | x | x | x
C/C(=N\NS(=O)(=O)c1ccccc1)c1cc(Cl)cc(Cl)c1O | -1.4 | -0.4 | -4 | 9 | -32 | 55 | -37 | -32 | -12 | x
Cc1ccc2nc(Nc3nc(C)cc(-c4ccccc4)n3)[nH]c(=O)c2c1 | u | -34 | 9 | 22 | 41 | -3 | 18 | 22 | 1.3 | i
CC(OC(=O)c1ccc(NC(=O)CC#N)cc1)C(=O)Nc1nc(-c2ccccc2)cs1 (centres undefined) | 2.1 | 1.1 | -4 | 5 | -18 | x | -7 | -24 | 7.8 | i
COc1cccc(NC(=O)C2C3CCC4C(CCC32)C4(Cl)Cl)c1 (centres undefined) | 0.1 | x | -1 | -2 | -3 | 0 | x | x | x | x
CS(=O)(=O)c1ccc2nc(NC(=O)c3ccc(NS(=O)(=O)c4cccc([N+](=O)[O-])c4)cc3)sc2c1 | 1.6 | 1.4 | -2 | -2 | -10 | x | 12 | 5 | -3.0 | i
CC1CCN(S(=O)(=O)c2ccc(C(=O)N3CCCC3C(=O)O)cc2)CC1 (centres undefined) | x | -2.3 | x | 1 | x | 0 | x | x | x | i
CC(C)CC(COCc1ccc(Cl)cc1)N1CCN(C(=O)c2ccc(Cl)cc2Cl)CCC1=O (centres undefined) | 6.7 | -0.5 | 7 | 15 | 26 | -11 | -5 | -15 | -10 | i
COc1ccc(CCNS(=O)(=O)c2ccc(Br)cc2)cc1OC | -2.7 | -2.3 | 7 | -9 | -6 | -8 | -13 | -3 | 2.9 | i

2 entries from above, with two lines to a compound:
Second line of a record – RanGTP-Impb inh	AF4-AF9 inh	Calb FLC	Beta apoptosis	T cruzi inh	ALR H2O2 inh	Ecoli rRNA inh	Ecoli rRNA inh OD600	Ecoli rRNA inh RFP	FGF22 binding
CN(C)CCCCOc1ccc(F)cc1
  -0.8	-1.0	-1	x	u	-11	5	11	-0.6	i
COc1ccc(-c2csc3nc(C)nc(N4CCCCC4)c23)cc1OC
  3.7	1.2	10	0	12	-3	-32	-35	-15	i

Continued:
SMILES | RanGTP-Impb inh | AF4-AF9 inh | Calb FLC | Beta apoptosis | T cruzi inh | ALR H2O2 inh | Ecoli rRNA inh | Ecoli rRNA inh OD600 | Ecoli rRNA inh RFP | FGF22 binding
COc1ccc(Cl)cc1S(=O)(=O)Nc1ccc2c(c1)n(C)c(=O)n2C | 5.2 | -0.1 | 11 | 1 | x | x | -14 | -5 | 7.4 | i
O=C(NCc1csc(-c2cccs2)n1)C1CC1 | 4.6 | -0.5 | -10 | -12 | x | 8 | 12 | 10 | 2.3 | i
O=C(CN1CCN(CC(=O)Nc2ccc(Cl)cc2)CC1)Nc1ccc(F)cc1 | 0.2 | 3.9 | 0 | -3 | 16 | -5 | 21 | 12 | 1.0 | i
Cc1ccccc1NCc1ccc(O)c2ncccc12 | -0.2 | -73 | 0 | x | 31 | -21 | -6 | -3 | -5.7 | i
Cc1ccccc1NS(=O)(=O)c1ccc2c(c1)n(C)c(=O)n2C | -2.0 | 2.0 | u | x | 3 | -25 | 10 | 9 | 1.7 | i
Cc1ccc(N(CC(=O)N/N=C/c2ccc(OCC(N)=O)cc2)S(C)(=O)=O)cc1Cl | 0.6 | 0.2 | -3 | 3 | -10 | -8 | 2 | 7 | -1.3 | i
O=C(Nc1ccc(F)cc1)OCCOc1ccc([N+](=O)[O-])cc1 | 3.1 | 4.2 | -5 | -3 | -4 | 2 | 2 | 11 | 3.7 | i
Cc1c(C#N)c(N=CN(C)C)c(C(=O)c2ccc(Br)cc2)n1-c1ccccc1 | -0.5 | x | 6 | 4 | 20 | 1 | x | x | x | x
O=C(CN1CCN(CC(=O)Nc2ccccc2C(F)(F)F)CC1)Nc1ccccc1F | 2.1 | x | -1 | -1 | -4 | 1 | x | x | x | x
Cc1cc(OCC(=O)Nc2cccnc2)c2c(C)cc(=O)oc2c1 | 4.5 | -1.6 | -4 | x | -18 | -1 | 7 | 4 | -2.0 | i
COc1ccc(CC(=O)Nc2ccc(S(=O)(=O)Nc3cc(C)on3)cc2)cc1OC | 1.2 | x | 7 | -2 | -14 | -7 | x | x | x | x
CN1CN=C(NS(=O)(=O)c2ccc([N+](=O)[O-])cc2)NC1 | -1.0 | 3.7 | -3 | -3 | 23 | -3 | 7 | 11 | 3.0 | i
O=C(CSCc1cc(=O)n2nc(C3CC3)sc2n1)Nc1ccccc1Cl | -0.2 | -2.0 | -3 | 0 | -8 | -14 | 4 | 6 | 5.4 | i
CC1(C)CC(CC(=O)Nc2ccccc2[N+](=O)[O-])C(=O)O1 (centres undefined) | 6.4 | -7.4 | -1 | -5 | -27 | x | -1 | -1 | -1.7 | i
CC(C)n1cnc2cc(NCc3ccccn3)ccc21 | 3.9 | -4.8 | 6 | -2 | 1 | 74 | -6 | -5 | 4.9 | i
COCCN(C(=S)Nc1cc(C)cc(C)c1)C(C)c1cccs1 (centres undefined) | -4.5 | -33 | 0 | -7 | -4 | -9 | 2 | 1 | -0.3 | i
